FGF22 binding: binders of human FGF22 protein, primary screen, FGF22 synaptogenesis inhibitor project, biophysical, thermal shift, single point | Fibroblast growth factor 22 (Homo sapiens), Q9HCT0 | actives 1.5% (n = 340,000) | recombinant FGF22 thermal shift, SYPRO orange fluorescence; percent of sucrose octasulfate shift, DMSO zero | calls only at 9.99 µM;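 active = melting point raised past a set limit in the mean and every replicate; inconclusive = no clear call; three in four hits are not shown here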
Target sequence (Q9HCT0 whole entry, looked up): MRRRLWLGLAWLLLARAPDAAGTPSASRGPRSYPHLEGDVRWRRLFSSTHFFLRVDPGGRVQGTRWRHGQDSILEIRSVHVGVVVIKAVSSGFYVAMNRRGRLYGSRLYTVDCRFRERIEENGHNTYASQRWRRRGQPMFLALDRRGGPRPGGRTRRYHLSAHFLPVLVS
HNF4A DNA FP: change in binding of human HNF4A to DNA, primary screen, biochemical, fluorescence polarization, FITC-DNA | Hepatocyte nuclear factor 4-alpha (Homo sapiens), P41235 | 1 h | activity change, % at 10 µM | actives 0.3% (n = 360,000); in the data active = activity change above about 30%, passing the limit was not always enough;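 also: controls were the assay level and a saturating level of protein; the project sought stronger binding though the title names inhibitors; some compounds called inactive have numbers as strong as hits; positive values seem to mean higher polarization but the record does not say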
Target sequence (P41235 whole entry, looked up): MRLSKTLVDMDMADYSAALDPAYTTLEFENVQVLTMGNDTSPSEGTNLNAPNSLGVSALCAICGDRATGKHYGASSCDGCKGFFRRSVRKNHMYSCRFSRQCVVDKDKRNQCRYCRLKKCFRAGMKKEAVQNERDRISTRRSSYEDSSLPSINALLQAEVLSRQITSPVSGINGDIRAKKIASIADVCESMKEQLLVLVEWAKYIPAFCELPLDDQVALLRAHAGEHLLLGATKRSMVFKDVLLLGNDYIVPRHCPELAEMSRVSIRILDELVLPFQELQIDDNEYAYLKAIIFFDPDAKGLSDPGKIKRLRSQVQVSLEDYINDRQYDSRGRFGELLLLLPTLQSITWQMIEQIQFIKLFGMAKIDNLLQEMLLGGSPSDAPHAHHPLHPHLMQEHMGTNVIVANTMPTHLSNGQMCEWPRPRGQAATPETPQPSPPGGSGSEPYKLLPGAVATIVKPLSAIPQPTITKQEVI
AF4-AF9 inh: inhibitors of AF4 peptide binding to AF9, primary screen, biochemical, AlphaScreen, biotin-AF4 peptide, FLAG-AF9, single point; Protein AF-9 (Homo sapiens), P42568; inhibition, % at 10 µM; actives 0.47% (n = 350,000); AID 651704, 2012;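 active = every replicate reaching a set inhibition limit, whatever the replicate mean, cut at about 25% in these data; inconclusive = mean inhibition reaches that limit but some replicates miss it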;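 also: 0% = plate neutral control median and 100% = total signal loss; the record names both 10 and 1 µM as test concentration; the first replicate is given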
Vif A3G: inhibitors of Vif binding to APOBEC3G peptide, primary screen, biochemical, TR-FRET, GST-Vif 1-94, biotin-A3G peptide, dose response retest (AID 1117319) | TR-FRET GST-Vif / biotin-A3G peptide binding; higher % means a stronger effect; test concentration not given here; strong numbers were not always called active | inhibition, %, or IC50 in µM where a hit was titrated | Virion infectivity factor (Human immunodeficiency virus type 1 group M subtype B (isolate … | actives 0.57% (n = 260,000);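 active = above the screen mean plus three standard deviations and confirmed in dose response; inconclusive = results disagree or hit not tested in dose response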;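 also: Vif residues 1-94 fused to GST binding biotinylated APOBEC3G peptide 110-148; 0% = full assay without inhibitor and 100% = GST in place of GST-Vif; retest series ran down from 100 µM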
Ecoli growth: E. coli growth inhibition, primary screen, OD600; OD600 absorbance (no concentration beside the values); Escherichia coli growth, 23 h; stronger effect = lower value; actives 0.21% (n = 330,000);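 active = OD600 absorbance below the run mean of sample wells minus 3.6 SD, in any replicate, cut at about 0.56 in these data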;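 also: stock transfer was 300 nL into about 60 µL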
UCH37 inh: inhibitors of human UCH37 deubiquitinase, primary screen, biochemical, Ub-AMC cleavage, fluorescence; Ubiquitin carboxyl-terminal hydrolase isozyme L5 (Homo sapiens), Q9Y5K5; purified proteasome/UCH37; inhibition, % (no concentration beside the values); actives 0.33% (n = 330,000); AID 588478, 2011;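 active = mean of two replicates above 20%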;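 also: 0% = compound-free wells with enzyme and 100% = wells lacking proteasome; stock transfer was 100 nL into about 20 µL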
Target sequence (Q9Y5K5 whole entry, looked up): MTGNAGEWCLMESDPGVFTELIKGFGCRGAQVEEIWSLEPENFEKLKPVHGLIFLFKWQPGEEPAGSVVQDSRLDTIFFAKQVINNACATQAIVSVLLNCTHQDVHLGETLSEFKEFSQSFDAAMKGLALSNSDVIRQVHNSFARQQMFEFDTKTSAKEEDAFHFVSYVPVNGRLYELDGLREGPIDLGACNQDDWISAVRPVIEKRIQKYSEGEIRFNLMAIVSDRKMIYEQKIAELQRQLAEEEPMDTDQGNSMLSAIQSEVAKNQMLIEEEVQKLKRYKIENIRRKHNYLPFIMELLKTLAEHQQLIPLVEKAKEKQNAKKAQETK
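Material: Human UCH37 enzyme supplied as purified proteasome complex | Schedule: 30 min compound-proteasome preincubation then 25 min substrate reaction, room temperature | Detection: AMC fluorescence from Ub-AMC cleavage, excitation 355 nm, emission 460 nm | Benchmarks: Wells without proteasome as full block, compound-free enzyme plus substrate as uninhibited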
RanGTP-Imp inh: inhibitors of RanGTP-importin-beta interaction, primary screen, biochemical, FRET, CFP-Ran, YFP-importin-beta, homogeneous | cell-free CFP-Ran/YFP-importin-beta FRET ratio | inhibition, % (no concentration beside the values) | actives 1.1% (n = 300,000);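 active = most replicates above 15%; inconclusive = exactly half above 15%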;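 also: 0% = DMSO wells and 100% = Ran loaded with GDP instead of GTP; wells of about 40 µL received 100 nL stock; the first replicate is given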
Numbers without * were called inactive; i = inactive; ? = inconclusive; . = not tested or not shown. This is a subset; count on the stated rates, not on these rows.

SMILES | FGF22 binding | HNF4A DNA FP | AF4-AF9 inh | Vif A3G | Ecoli growth | UCH37 inh | RanGTP-Imp inh
CC(=O)CN1C(=O)NC(c2ccccc2)(c2ccccc2)C1=O | i | -4.9 | -0.6 | . | 0.69 | 2.0 | 5.2
CCc1cc(C(=O)NNC(=S)NC(C)c2ccccc2)cs1 (stereo not drawn) | i | -2.1 | 4.2 | 2% | 0.68 | 4.5 | 3.9
COCCCN=Cc1c(-c2ccccc2)[nH]n(-c2nc3ccccc3s2)c1=O | i | -0.7 | 5.3 | -4% | 0.62 | 4.4 | 2.6
Cn1nc(-c2ccccc2F)c2cc(C(=O)N3CCN(C(=O)c4ccco4)CC3)sc21 | . | 0.3 | . | . | 0.73 | 6.1 | ?
CC(C)c1ccc(/C=C/C(=O)NC2CCCCC2)cc1 | i | -3.5 | 0.5 | -3% | 0.73 | 2.3 | -0.8
CC(C)C[C@H](NC(=O)[C@@H]1Cc2c([nH]c3ccccc23)C2c3ccccc3C(=O)N21)C(=O)NCC1CCCO1 (stereo partly drawn) | i | -2.3 | 0.1 | . | 0.73 | 2.2 | 3.2
CC(=O)c1ccc(NC(=O)c2cccc(S(=O)(=O)N3CCN(C)CC3)c2)cc1 | i | -0.2 | 2.1 | . | 0.66 | 3.3 | -3.2
CCOC1(c2ccccc2)CC1C(=O)N/N=C/c1cccc([N+](=O)[O-])c1 (stereo not drawn) | i | 4.8 | 6.1 | . | . | . | 3.5
Clc1cccc(COn2c(-c3ccc(Cl)cc3Cl)nc3ncccc32)c1 | . | 0.1 | . | 11% | 0.71 | -0.9 | -1.4
COc1cccc(NC(=O)N2CCCCCC2)c1 | i | 2.4 | 0.1 | . | 0.7 | 0.9 | -2.5

Part of the list above in order of heavy-atom count, low to high:
SMILES | FGF22 binding | HNF4A DNA FP | AF4-AF9 inh | Vif A3G | Ecoli growth | UCH37 inh | RanGTP-Imp inh
CC(=O)CN1C(=O)NC(c2ccccc2)(c2ccccc2)C1=O | i | -4.9 | -0.6 | . | 0.69 | 2.0 | 5.2
CCOC1(c2ccccc2)CC1C(=O)N/N=C/c1cccc([N+](=O)[O-])c1 (stereo not drawn) | i | 4.8 | 6.1 | . | . | . | 3.5
CC(=O)c1ccc(NC(=O)c2cccc(S(=O)(=O)N3CCN(C)CC3)c2)cc1 | i | -0.2 | 2.1 | . | 0.66 | 3.3 | -3.2

Later entries.
SMILES | FGF22 binding | HNF4A DNA FP | AF4-AF9 inh | Vif A3G | Ecoli growth | UCH37 inh | RanGTP-Imp inh
O=C1CCCc2oc3c(c21)CCCC3 | i | 1.9 | -2.4 | 1% | 0.64 | 3.8 | -0.2
CCOc1ccc(NC(=O)CN(C)C(=O)c2ccc(COc3ccccc3)o2)cc1OCC | i | -0.6 | 1.6 | . | 0.7 | 2.3 | 8.6
CC(C)(C)c1ccc(S(=O)(=O)CC(O)CSc2nc3c(cc2C#N)CCCC3)cc1 (stereo not drawn) | . | -5.5 | . | -11% | . | . | -1.1
CN(CC(=O)NCc1cccs1)S(=O)(=O)c1cccc2cccnc12 | i | -1.8 | 6.0 | -2% | 0.73 | 4.8 | 0.3
Cc1ccccc1SCC(=O)OCC(=O)NCc1ccccc1 | i | -0.7 | 5.6 | -6% | 0.67 | 0.8 | .
CCOc1ccc2nc(NC(=S)NCc3ccccc3)sc2c1 | . | 1.9 | . | -4% | 0.68 | 2.0 | -2.6
CN(Cc1ccccc1)C(=O)c1ccc(NC(=O)Cc2ccc(NC(=O)C3CCCN(C(=O)c4ccccc4)C3)cc2)cc1 (stereo not drawn) | i | 3.3 | 2.7 | . | 0.71 | 2.3 | .
O=S(=O)(Nc1ccc(-c2nc3cccnc3s2)cc1)c1cccs1 | i | 6.0 | 5.8 | -7% | 0.81 | -456 | 9.5
CCOc1ccc(NC(=O)c2ccccc2OCC(=O)c2ccccc2)cc1 | . | -4.5 | . | 8% | 0.72 | 3.3 | -1.2
O=S(=O)(c1ccccc1C(F)(F)F)N1C=CC(C(F)(F)F)=NCC1 | i | -0.8 | -1.6 | . | 0.64 | 3.3 | -0.2
Cc1ccc(OCC(O)CN2C(=O)NC(C)(C)C2=O)c(C)c1 (stereo not drawn) | i | 3.6 | 0.2 | . | 0.7 | 1.7 | 2.2
O=C(c1cccc(S(=O)(=O)Nc2ccc(F)cc2)c1)N1CCOCC1 | i | 0.7 | -7.4 | 2% | 0.68 | 0.7 | .
CCOC(=O)C1=CCN(S(=O)(=O)c2ccc(Cl)cc2)C1c1cccc(C)c1 (stereo not drawn) | i | -3.0 | 0.7 | . | . | . | .
O=C(NCCOc1ccc(F)cc1)C1CCC(=O)N(Cc2ccc(Cl)cc2)C1 (stereo not drawn) | i | 0.7 | -1.0 | 4% | . | . | .
CCCS(=O)(=O)N1CCN(C(=O)c2cc(OC)cc(OC)c2)CC1 | . | 3.8 | . | 4% | 0.69 | -0.4 | -2.4
Cc1c(Cl)cnc(NC(=O)COC(=O)Cc2coc3ccc4ccccc4c23)c1Cl | i | 7.0 | -2.5 | 5% | 0.74 | -21 | -1.0
Cc1cc(C(=O)N2CCCC(CO)(Cc3ccc(F)cc3F)C2)nn1C (stereo not drawn) | i | -1.6 | 2.0 | . | . | . | .
O=S(=O)(NCCC1=CCCCC1)c1cccc2nsnc12 | . | 6.0 | . | 6% | 0.69 | 7.2 | -2.5
COCCNC(=O)CSc1nnc(-c2ccc(C)cc2)c(-c2ccc(C)cc2)n1 | i | 1.3 | 11 | . | 0.68 | 6.5 | ?
OC[C@H]1O[C@@H](c2nc(-c3ccccc3Br)no2)[C@H](O)[C@@H](O)[C@H]1O | i | -0.8 | -0.5 | . | . | . | .
CCNc1nc(NCC)n2c(SCC(=O)Nc3ccc(CC)cc3)nnc2n1 | . | -2.1 | . | -3% | 0.64 | 2.3 | 2.0
Cn1cc(C(=O)N2CCCC(Nc3ccc(F)cc3)C2)c2ccccc21 (stereo not drawn) | i | -2.4 | 2.4 | . | 0.7 | 1.3 | 5.5
Cc1ccc2[nH]c3c(=O)n(CC(=O)N4CC(C)CC(C)C4)ncc3c2c1 (stereo not drawn) | i | -0.6 | -0.7 | . | 0.69 | -42 | 1.6
CCOC(=O)CCCN(c1[nH]c(C)c(C)c1C#N)S(=O)(=O)c1ccc(C)cc1 | i | -0.1 | -0.2 | . | . | . | .
CNC(=S)N/N=C/c1ccc(-c2cc([N+](=O)[O-])ccc2Cl)o1 | i | 2.9 | 0.3 | -5% | . | . | -8.6
Cc1cc(C)c(C)c(OCCN2CCOCC2)c1 | i | 0.6 | -0.1 | . | 0.7 | 1.8 | -3.1
Cc1ccc2oc(C(=O)NCC3CCOCC3)c(C)c2c1 | i | -1.5 | -5.3 | -1% | 0.66 | -1.4 | -3.8
Cc1cc(Cl)c(S(=O)(=O)Nc2ccc3c(c2)OCO3)cc1OCC(N)=O | . | -1.8 | . | 1% | 0.71 | 4.9 | 2.0
O=C(NCc1cccnc1)c1ccc([N+](=O)[O-])o1 | i | -0.1 | -1.2 | 3% | 0.5* | 6.0 | 0.7
Cc1cccnc1C(NC(=O)C1CCN(Cc2cn(C)c3ccccc23)CC1)c1ccc(Cl)cc1 (stereo not drawn) | i | -0.6 | 16 | . | . | . | .
CC(NC(=O)c1ccc(C23CC4CC(CC(C4)C2)C3)cc1)C(=O)O (stereo not drawn) | . | -2.0 | 0.0 | 2% | 0.69 | 2.8 | 7.9
CCC(C)(C)N=C(NC#N)Nc1cccnc1 | . | . | . | 4% | 0.67 | 1.5 | -1.9
CN(C)Cc1c(C(=O)N/N=C/c2cccc3ccccc23)nnn1-c1nonc1N | i | 4.3 | -0.8 | 8% | . | . | 2.4
Cc1c(C(=O)OCC(=O)N(C)Cc2ccccc2)oc2ccccc12 | i | -1.5 | 8.2 | -6% | 0.67 | 2.3 | .
Nc1ccccc1SC1CC(=O)N(c2ccc3c(c2)OCO3)C1=O (stereo not drawn) | i | -0.1 | -3.1 | 2% | 0.66 | 0.7 | -2.1
CCCNC(=O)COC(=O)c1ccc(-c2ccccc2)cc1 | i | -0.2 | -4.1 | -5% | 0.68 | -0.4 | 0.9
NC(=O)NC(=O)CSc1nc(-c2ccccc2)c(-c2ccccc2)n1CC1CCCO1 (stereo not drawn) | . | -0.8 | . | 6% | 0.68 | 3.7 | 2.3
COc1ccc(CCNC(=O)CN(C)S(=O)(=O)c2ccc3nc(C)sc3c2)cc1OC | i | 3.3 | -1.6 | . | 0.68 | 0.3 | 4.0
Cc1cc(OCC(=O)NCCCN2CCCC2=O)c2c(C)cc(=O)oc2c1 | i | 0.5 | 1.4 | . | 0.63 | -143 | 4.7
CCOc1ccccc1C(=O)N(CN1CCCC1=O)c1ccc(C)c(Cl)c1 | . | 0.9 | . | 3% | 0.71 | 0.7 | -2.6
Cc1ccccc1NC(=O)c1sc2nc(N3CCOCC3)c3c(c2c1N)CCCC3 | i | 1.4 | -3.3 | . | 0.72 | -482 | 5.4
O=C(c1ccccc1)c1c[nH]c(C(=O)NNc2cccc(Cl)n2)c1 | i | 5.1 | -1.9 | 1% | 0.64 | -1.2 | 6.7
CC[C@]12c3[nH]c4ccccc4c3CCN1C(=O)C(CC(=O)NCc1cccc(C(F)(F)F)c1)C[C@@H]2C(=O)N1CCN(C(=O)C2CC2)CC1 (stereo partly drawn) | i | 4.0 | 4.0 | 3% | 0.69 | 5.9 | .
CC1CC2(CC(C)(C(=O)CSc3nc4ccccc4s3)OC2=O)C(=O)O1 (stereo not drawn) | . | -3.8 | . | -4% | 0.69 | 5.8 | -3.0
CCC(C)[C@H](Nc1nc(-c2ccccc2)nc2c1oc1ccccc12)C(=O)O (stereo partly drawn) | . | 3.4 | . | 1% | . | -1.8 | 1.0
O=C(NC(=S)Nc1cccc(NC(=S)NC(=O)c2ccco2)n1)c1ccco1 | i | 2.1 | -1.7 | 20% | 0.71 | 2.7 | 0.3
COc1cc(C(=O)NCC(=O)OCC(=O)c2ccc[nH]2)cc(OC)c1OC | . | -2.2 | . | 18% | 0.71 | 0.6 | 1.1
Cc1cc(/C=C2/C(=N)N3C(=NC2=O)SN=C3S(C)(=O)=O)c(C)n1-c1ccccc1F | . | -2.4 | . | 17% | . | . | 5.6
O=C(Nc1ccc(Cl)cc1)c1ccc2c(c1)OCO2 | . | -3.9 | . | -7% | 0.7 | 1.3 | -0.2
CCNc1ccc(S(=O)(=O)N(C)C)cc1[N+](=O)[O-] | . | -2.4 | -2.1 | 5% | 0.71 | 3.3 | 0.3
O=C(CSc1nnc(-c2ccncc2)n1CC1CCCO1)Nc1nccs1 (stereo not drawn) | . | 2.1 | . | 16% | 0.72 | 0.6 | -2.1
CCc1ccccc1NC(=O)CN(C)C(=O)CN1C(=O)NC2(CCCCCC2)C1=O | i | 3.1 | -0.2 | 5% | 0.7 | -1.0 | -1.9

2 successive records from above, for reference:
SMILES | FGF22 binding | HNF4A DNA FP | AF4-AF9 inh | Vif A3G | Ecoli growth | UCH37 inh | RanGTP-Imp inh
Cc1ccccc1NC(=O)c1sc2nc(N3CCOCC3)c3c(c2c1N)CCCC3 | i | 1.4 | -3.3 | . | 0.72 | -482 | 5.4
O=C(c1ccccc1)c1c[nH]c(C(=O)NNc2cccc(Cl)n2)c1 | i | 5.1 | -1.9 | 1% | 0.64 | -1.2 | 6.7
